Compound activity from PubChem BioAssay.
Mtb hypoxia rep – inhibitors of hypoxia-regulated fluorescent reporter in Mycobacterium tuberculosis; M. tuberculosis hypoxia-regulated fluorescent reporter, fluorescence; fluorescence inhibition, % (concentration not given with the values); actives 0.1% (n = 300,000);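 active means 35 to 45% if threefold the growth effect, above 45% if 1.5-fold the growth effect; inactive means the rest, general growth blockers included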;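 further: wells of about 50 µL received 100 nL stock; 0% = vehicle wells and 100% = reference inhibitor wells; whole bacteria with a GFP reporter of the hypoxia response; strong numbers were not always called active; many hits fall short of the cut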
ugtP null kill – compounds lethal to S. aureus RN4220 ugtP deletion mutant. OD600 growth, 16 h; some inactives read as strong as hits. actives 0.54% (n = 330,000). growth inhibition, % (concentration not given with the values). AID 1259309;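 active means z-score under -3 and OD600 up to 0.15 on both plates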;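 further: plate controls were untreated wells for no effect and antibiotic for full effect; wells of about 80 µL received 100 nL stock; the first replicate is given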
BJeLR lethal – kills HRASV12-expressing BJeLR cells | actives 0.17% (n = 300,000) | BJeLR (HRASV12) viability, CellTiter-Glo ATP luminescence, 48 h; reference of the scale not given here | inhibition, % (concentration not given with the values);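 active means replicate mean above 50%; inconclusive means above 50% but judged a plate artefact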;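 further: 50 nL library stock added to about 25 µL; numbers are from one replicate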
RN4220 kill – S. aureus RN4220 growth inhibition | OD600, 16 h | actives 0.33% (n = 330,000) | inhibition, % (no concentration beside the values);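 active means z-score of -3 or lower and OD600 up to 0.18 on both plates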;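 further: plate controls were untreated cells for no effect and reference antibiotic for full effect; stock transfer was 100 nL into about 80 µL; one replicate is shown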
PrP UTR inh – inhibition of PrP 5' UTR reporter expression; inhibition, % (no concentration beside the values); actives 0.35% (n = 340,000); cell-based PrP 5' UTR mRNA reporter, plate reader; AID 488862;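 active means every replicate at 50% or more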;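 further: 0 = median of the neutral control wells; tested in H4 reporter cells; numbers are from one replicate; inactives centre near -14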
Autofluor counter – flagged as autofluorescent in microsphere protease counterscreen; compound autofluorescence counterscreen, microsphere flow cytometry; stronger effect = higher value; fluorescence intensity (no concentration beside the values); actives 3.1% (n = 360,000); AID 624483;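 active means at least 3 SD above the mean of all compounds, about 16000 in these data; inconclusive means too few beads counted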;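 further: 100 nL of 1 mM stock went into each well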
Mtb hypoxia rep growth – second read-out of Mtb hypoxia rep, no call of its own (marks repeat the call); growth inhibition, %; measured here: M. tuberculosis growth (absorbance);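 0% = vehicle and 100% = reference antibiotic; read after six days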
Starred values were filed as active, the others as inactive; u = inconclusive; x = not tested or not shown.

The line under a structure holds: PrP UTR inh | Mtb hypoxia rep | ugtP null kill | BJeLR lethal | Mtb hypoxia rep growth | RN4220 kill | Autofluor counter
CN(CCCC1CCCC1)C(=O)CC1C(=O)NCCN1Cc1cccc(F)c1F (stereo not given)
    -1 | 5 | -2 | 7 | 0 | 2.9 | 6301
COc1ccc(/C=C2\SC(c3ccc(C)cc3)=NC2=O)cc1OC
    0 | 7 | -12 | -16 | 6 | 6.9 | 6734
CN(C)S(=O)(=O)c1ccc(SCC(=O)N2CC(=O)Nc3ccccc32)nc1
    -17 | 1 | 1 | x | 6 | 2.8 | 8063
Clc1cccc2c1Sc1ccccc1CC2N1CCNCC1 (stereo not given)
    -28 | 12 | -10 | 1 | 9 | 22 | 2619
Cc1ccc2[nH]c(=O)c(CN(CCO)C(=O)N(C)C)cc2c1
    -11 | 10 | 3 | -3 | 3 | 0.3 | 17576*
Cc1nnnn1/C(=C\c1ccccc1)C(=O)OCC(=O)Nc1ccc(Cl)cc1F
    -2 | 2 | -4 | -2 | 13 | 3.7 | 5551
Cc1ccc(N2C(=O)[C@@H]3C(C(=O)C(c4ccccc4)c4ccccc4)=NN[C@@H]3C2=O)cc1
    -2 | 4 | 1 | 5 | 4 | 2.2 | 1957
O=C(O)c1ccc(C=NNC(=O)C2CC2(c2ccccc2)c2ccccc2)cc1 (stereo not given)
    x | 8 | 4 | x | -2 | 4.1 | x
CC(c1nccs1)N(C)c1nc2nonc2nc1N(C)C (stereo not given)
    4 | 3 | 0 | -4 | -2 | 5.6 | 3791
O=C(CN1CCN(Cc2ccc(Cl)cc2)CC1)N/N=C/c1c[nH]c2ccccc12
    -8 | x | x | -5 | x | x | 2088
COc1cccc(C(=O)c2cc3cc(Cl)ccc3[nH]2)c1
    -41 | 9 | 1 | 2 | 8 | 1.6 | 3600
C=CCNC(=S)NNC(=O)Cn1c(-c2ccccc2)cc(=O)n2ncnc12
    -27 | -3 | 0 | -1 | 6 | 3.1 | 3880
CCOc1cc(C=NNC(=O)c2ccccc2-n2cccc2)ccc1O
    x | 3 | 5 | x | -6 | 4.2 | x
CC1CC(CC(C)C(=O)NC(=S)Nc2ccc(S(N)(=O)=O)cc2)C(=O)O1 (stereo not given)
    -19 | 8 | 9 | 7 | 8 | 0.1 | 4153
CC(NC(=O)Cn1nc(C(=O)O)c2ccccc2c1=O)c1ccccc1 (stereo not given)
    -7 | x | -5 | -17 | x | -3.6 | 4091
COc1ccc2ncc(S(=O)(=O)c3ccccc3)c(N3CCC4(CC3)OCCO4)c2c1
    -20 | -4 | 11 | -1 | -6 | 4.7 | 2159
O=S(=O)(c1ccccc1Cl)N1CCCC1c1nc(-c2ccccc2Cl)no1 (stereo not given)
    1 | 4 | 0 | -8 | 1 | 5.8 | 3697
c1ccc(CSc2nnc(-c3ccco3)n2Cc2ccco2)cc1
    -42 | 23 | 2 | 5 | 6 | 3.1 | 10206
Nc1c2c(nc3ccc(Br)cc13)N(c1ccccc1)CC2
    -10 | 5 | 47 | x | 5 | 21 | 10017
CNC(=S)N(C)CCc1cc2c(c(OC)c1C=C1C(=O)NC(=O)NC1=O)OCO2
    -23 | x | x | 5 | x | x | 3579
COCCSc1nnc(NC(=O)COC)s1
    -34 | 5 | -7 | x | 10 | -3.3 | 8889
Cc1c(Cl)c([N+](=O)[O-])nn1CC(=O)NCC1CCCO1 (stereo not given)
    -16 | 10 | 10 | 4 | 0 | 3.0 | 4465
O=C(NNC(=O)C(c1ccccc1)c1ccccc1)c1ccccn1
    28 | -4 | 10 | 20 | 6 | 4.9 | 2769
O=C(COC(=O)c1cccs1)Nc1ccccc1Cl
    -54 | 5 | 11 | -3 | 7 | -1.4 | 4766
CC(C)(C)n1cnnc1Sc1ccc([N+](=O)[O-])cn1
    -19 | -8 | -1 | 7 | -1 | 3.8 | 3510
COc1ccc([N+](=O)[O-])c(S(=O)(=O)c2ccc(Cl)cc2)n1
    -25 | 3 | 100* | 5 | 11 | 100* | 3774
O=C1SC(SCc2ccccc2Cl)=N/C1=C\c1ccc(C(=O)O)cc1
    -9 | 3 | 8 | 0 | 11 | 7.0 | 4565
CC(=O)N/C(=N/c1nc(C)cc(C)n1)Nc1ccc(C)cc1C
    -23 | 13 | 2 | 14 | 23 | 2.4 | 3007
O=C(Nc1cccc(F)c1)c1cccc2c1C(=O)N(C1CCCCC1)C2
    -7 | 8 | -13 | -13 | 0 | -0.2 | 4912
Cc1cc(C)cc(NC(=S)N2CCC(c3nc4ccccc4s3)CC2)c1
    -33 | 4 | 5 | 10 | 2 | 3.0 | 11298
CCOC(=O)COc1ccc(/C=C2/SC(=Nc3ccccc3)N(Cc3cccnc3)C2=O)cc1OC
    8 | 12 | -15 | -6 | 10 | 3.7 | 3087
O=C(Nc1cccc(S(=O)(=O)Nc2ccc(Cl)cc2)c1)c1ccccn1
    -6 | 7 | -8 | x | 6 | 1.7 | 3054
Cc1sc2c(c1C)C(c1ccc(C(C)(C)C)cc1)=NCC(=O)N2CC(=O)Nc1nccs1
    -25 | 2 | -23 | -2 | 4 | -2.6 | 22414*
Oc1c(N=NC(=S)Nc2ccccc2F)c2ccccc2n1Cc1ccc(F)cc1
    30 | 9 | 1 | -5 | 2 | 2.4 | 4174
CC(=O)Nc1ccc2oc(-c3ccccc3)nc2c1
    -88 | 4 | 3 | -10 | 7 | 0.7 | 4399
N#Cc1ccc(OCC(=O)Nc2ccccc2NS(=O)(=O)c2cccs2)cc1
    -6 | 1 | 24 | -12 | 3 | 10 | 2480
O=C(Nc1ccc(OC(F)(F)F)cc1)c1ccc2nccnc2c1
    -30 | x | x | -18 | x | x | 5020
CN(Cc1c(F)cccc1Cl)C(=O)CNC(=O)c1cccs1
    -42 | 9 | 9 | 8 | -12 | 5.9 | 3995
O=C(CSc1nc2ccccc2n1CC(=O)NCc1ccccc1)NCc1ccco1
    -13 | 6 | 5 | 2 | 8 | 5.3 | 8119
COc1cccc(-c2c(-c3cc(OC)cc(OC)c3)n(C)c3ccc(Br)cc23)c1
    -8 | 2 | 6 | x | 4 | -8.1 | 2869
Brc1ccccc1-c1nnc(CSc2nnc3sc4ccccc4n23)o1
    2 | 6 | 0 | -11 | -9 | 1.9 | 3491
CC(=O)C1=C(O)C(=O)N(Cc2ccco2)C1c1ccccc1F (stereo not given)
    -19 | 6 | 6 | 4 | 14 | 1.1 | 4635
COC(=O)C1=C(C(=O)OC)[C@@H]2N(C)c3ccc(OC)cc3[C@@]23C[C@@H](C(=O)OC)N(C(=O)c2ccc(Br)cc2)C3=N1
    -9 | x | x | -9 | x | x | 2976
CCOc1ccc(NC(=O)CSc2nccn2C)cc1
    -60 | 19 | 1 | -4 | 7 | 1.1 | 6318
CCC(CC)NC(=O)CN1CCN(S(=O)(=O)c2ccc(Br)s2)CC1
    -7 | 1 | 5 | x | 0 | 3.7 | 3935
CCCC[C@@H]1C=C(C(=O)O)[C@H](c2ccc(Cl)c(Cl)c2)N1S(=O)(=O)c1ccc(C)cc1
    3 | -7 | 11 | x | -4 | 22 | 2972
CN1C(=O)C(C)(C)c2cc(S(=O)(=O)N3CCCC(C(=O)NCc4ccccc4Cl)C3)ccc21 (stereo not given)
    -13 | 7 | 17 | 4 | 4 | 0.2 | 5976
CCCc1ccc(S(=O)(=O)NCC2CCCN2CC)cc1 (stereo not given)
    -4 | 9 | 6 | 0 | 7 | 1.2 | 4730
COc1ccc(NCC(O)Cn2c(C)c(C)c3ccccc32)cc1 (stereo not given)
    12 | 3 | 2 | -4 | 1 | 5.3 | 3894
O=c1[nH]c(=O)n(-c2ccccc2)c2c1C(C(F)(F)F)(C(F)(F)F)N=C(C1CCCCC1)N2
    -22 | x | x | 1 | x | x | 2106
CCOC(=O)N1CCN(C(=O)CCNS(=O)(=O)c2ccccc2)CC1
    -14 | 5 | 4 | -4 | 4 | 6.1 | 5493
CC1CC(C)(C)NC(=S)N1CCCC(=O)Nc1ccc(F)cc1 (stereo not given)
    -5 | -2 | 0 | -6 | -3 | -2.9 | 3293
Cc1cccc(OCCC(=O)OCc2csc(CC(=O)Nc3ccccc3C)n2)c1
    -7 | 2 | 2 | x | 5 | 0.0 | u
Cc1ccc(C(=O)CSc2nc(N)cc(=O)[nH]2)cc1C
    -28 | -4 | 1 | -9 | 14 | 5.9 | 3708
COc1ccc(-n2nc3c(c2NC(C)=O)CS(=O)(=O)C3)cc1
    -25 | 8 | 8 | -7 | 3 | 3.8 | 2873
COc1ccccc1-n1c(SCc2cc(=O)oc3cc(O)ccc23)nc2ccccc2c1=O
    -8 | -13 | 19 | 15 | -19 | 5.3 | 2598
Cc1ccc(CNC(=O)CCC(=O)Nc2nnc(C)s2)cc1
    -24 | 2 | 9 | -6 | -5 | 2.5 | 6036
Cc1nnsc1C(=O)Nc1cccc(Cl)c1
    -12 | x | x | -8 | x | x | 4382
CC1CCc2c(sc3c2C2=NS(=O)(=O)CCN2C=N3)C1 (stereo not given)
    -6 | -5 | -4 | 16 | 5 | 0.5 | 2314
C=C(C)C(=O)Nc1cccc(C2=NOC3(C2)C[C@@H](C(N)=O)N(C(=O)c2ccc(OC)cc2)C3)c1 (stereo not given in full)
    -22 | x | x | 0 | x | x | 2957

Next part:
The line under a structure holds: PrP UTR inh | Mtb hypoxia rep | ugtP null kill | BJeLR lethal | Mtb hypoxia rep growth | RN4220 kill | Autofluor counter
CC(=O)Nc1ccc(S(=O)(=O)NCc2nc(-c3ccccc3C)no2)cc1
    5 | 1 | 4 | -4 | -7 | 3.4 | 4706
Cc1cc(C)cc(OC(C)c2ccnc3nc(N=CN(C)C)nn23)c1 (stereo not given)
    x | 7 | 0 | x | 9 | 4.0 | x
CN(C)c1ccc(C(=O)OCC#CCSc2nnc(-c3cccc4ccccc34)o2)cc1
    -22 | 8 | -5 | x | 11 | -6.6 | 2788
COc1ccc(OC)c(C2CC(=O)N3CN(c4ccccc4F)CSC3=C2C#N)c1 (stereo not given)
    -10 | 4 | -6 | -23 | 11 | -6.9 | 6151
COC(=O)c1c(-c2ccccc2)csc1N
    -14 | -2 | 6 | 1 | -13 | 0.6 | u

Entries shown so far that have fluorine (ten):
The line under a structure holds: PrP UTR inh | Mtb hypoxia rep | ugtP null kill | BJeLR lethal | Mtb hypoxia rep growth | RN4220 kill | Autofluor counter
CN(CCCC1CCCC1)C(=O)CC1C(=O)NCCN1Cc1cccc(F)c1F (stereo not given)
    -1 | 5 | -2 | 7 | 0 | 2.9 | 6301
Cc1nnnn1/C(=C\c1ccccc1)C(=O)OCC(=O)Nc1ccc(Cl)cc1F
    -2 | 2 | -4 | -2 | 13 | 3.7 | 5551
O=C(Nc1cccc(F)c1)c1cccc2c1C(=O)N(C1CCCCC1)C2
    -7 | 8 | -13 | -13 | 0 | -0.2 | 4912
Oc1c(N=NC(=S)Nc2ccccc2F)c2ccccc2n1Cc1ccc(F)cc1
    30 | 9 | 1 | -5 | 2 | 2.4 | 4174
O=C(Nc1ccc(OC(F)(F)F)cc1)c1ccc2nccnc2c1
    -30 | x | x | -18 | x | x | 5020
CN(Cc1c(F)cccc1Cl)C(=O)CNC(=O)c1cccs1
    -42 | 9 | 9 | 8 | -12 | 5.9 | 3995
CC(=O)C1=C(O)C(=O)N(Cc2ccco2)C1c1ccccc1F (stereo not given)
    -19 | 6 | 6 | 4 | 14 | 1.1 | 4635
O=c1[nH]c(=O)n(-c2ccccc2)c2c1C(C(F)(F)F)(C(F)(F)F)N=C(C1CCCCC1)N2
    -22 | x | x | 1 | x | x | 2106
CC1CC(C)(C)NC(=S)N1CCCC(=O)Nc1ccc(F)cc1 (stereo not given)
    -5 | -2 | 0 | -6 | -3 | -2.9 | 3293
COc1ccc(OC)c(C2CC(=O)N3CN(c4ccccc4F)CSC3=C2C#N)c1 (stereo not given)
    -10 | 4 | -6 | -23 | 11 | -6.9 | 6151

Retrieved by structure from the list above, 2 records:
The line under a structure holds: PrP UTR inh | Mtb hypoxia rep | ugtP null kill | BJeLR lethal | Mtb hypoxia rep growth | RN4220 kill | Autofluor counter
CC(=O)Nc1ccc(S(=O)(=O)NCc2nc(-c3ccccc3C)no2)cc1
    5 | 1 | 4 | -4 | -7 | 3.4 | 4706
COc1ccc(OC)c(C2CC(=O)N3CN(c4ccccc4F)CSC3=C2C#N)c1 (stereo not given)
    -10 | 4 | -6 | -23 | 11 | -6.9 | 6151
